INS promoter inh – TRM-6 insulin promoter activity inhibition | TRM-6 cells (human fetal islet line), insulin promoter-eGFP reporter, imaging; reporter expression induced with tamoxifen | inhibition, % at 2 µM | 130,000 tested, 0.9% active | AID 1273;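 active = inhibition above the mean plus 3 SD, with well images judged a real hit on visual review, cut at about 60% in these data, passing the limit was not always enough; inconclusive = inhibition over the cutoff but images rejected on review; inactive = inhibition not above the cutoff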
PKD1 kinase inh – inhibitors of human PKD1 kinase; inhibition, %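 (about 10 µM by stock and volumes)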; Q15139; 200,000 tested, 0.056% active; PKD1 kinase fluorescence polarization assay; AID 797;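 active = inhibition of 50% or more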;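 note: controls were vehicle for no effect and a reference inhibitor for full effect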
HSV augment – HSV replication enhancement. HSV replication augmentation in cells, fold increase. maximum fold increase. 220,000 tested, 0.005% active. AID 1956;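 active = peak rise of 1.5-fold or more in the series; inconclusive = self-fluorescent or not available for retest; tested in PC3 cells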;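 note: first round at 10 µM; read as green reporter fluorescence; hits show the peak of a series up to 25 µM; 1 = signal of infected wells without compound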
GALR2 ag – agonists of human galanin receptor 2 (GALR2); GALR2-expressing cells, agonist activation read-out; AID 803; 140,000 tested, 0.48% active; activation, %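 (tested at 5 µM)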; O43603;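 active = above mean plus 3 SD of all compounds, about 5% in these data, not always enough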;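 note: 0% = vehicle buffer wells and 100% = reference agonist at full effect; tested in CHO reporter cells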
RGS16-Gao HTS – regulators of human RGS16-Galphao interaction; binding response (% of control), % at 10 µM; 220,000 tested, 0.38% active; bead-based flow cytometry RGS16-Galphao binding, fluorescence; actives lie on both sides; O15492+P09471;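 active = below 25% or above 175%, edge rows of some plates excepted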;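 note: Galphao activated by GDP with aluminum fluoride before binding; 100% = wells without compound and 0% = beads without RGS; some results beyond the cut were filed as inactive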
Target sequence (O15492 whole entry, looked up): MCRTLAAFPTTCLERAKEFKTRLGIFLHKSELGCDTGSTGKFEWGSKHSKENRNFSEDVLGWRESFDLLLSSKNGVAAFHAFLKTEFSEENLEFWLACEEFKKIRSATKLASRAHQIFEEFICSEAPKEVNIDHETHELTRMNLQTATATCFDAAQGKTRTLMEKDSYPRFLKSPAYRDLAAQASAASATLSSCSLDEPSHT
Target sequence (P09471 whole entry, looked up): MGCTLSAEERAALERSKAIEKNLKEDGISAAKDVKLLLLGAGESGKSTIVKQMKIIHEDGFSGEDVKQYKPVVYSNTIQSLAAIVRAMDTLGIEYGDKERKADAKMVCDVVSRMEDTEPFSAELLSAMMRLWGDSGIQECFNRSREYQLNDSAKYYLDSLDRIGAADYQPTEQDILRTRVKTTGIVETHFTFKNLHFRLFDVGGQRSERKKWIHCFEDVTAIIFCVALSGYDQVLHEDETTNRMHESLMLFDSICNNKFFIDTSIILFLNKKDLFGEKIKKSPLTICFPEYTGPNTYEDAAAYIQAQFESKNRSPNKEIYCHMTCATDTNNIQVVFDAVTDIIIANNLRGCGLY
INS promoter inh cell count – recorded beside INS promoter inh, whose call it bears; normalized cell count, %; measured here: cell count, toxicity; reference of the scale not given here;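 cells exposed to compound for 48 h; stained nuclei by imaging scaled within each plate; lower means fewer cells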
HSV augment primary fold – recorded beside HSV augment, whose call it bears; fold increase; compound at 10 µM; measured here: primary screen fold increase 10 uM; tested in PC3 cells;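 GFP signal in the first replicate; 1 = infected wells without compound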
* = called active by the depositor; i = inactive; u = inconclusive; x = not tested or not shown.

| cpd | Molecule | INS promoter inh | INS promoter inh cell count | PKD1 kinase inh | HSV augment | HSV augment primary fold | GALR2 ag | RGS16-Gao HTS |
| --- | --- | --- | --- | --- | --- | --- | --- | --- |
| 1 | Cc1ccc(NC(=O)c2oc3ccc(S(=O)(=O)N4CCC5(CC4)OCCO5)cc3c2C)cc1C | x | x | -11.4 | i | 0.86 | -1.5 | 105.3 |
| 2 | CCNc1nc(NCC)n2c(SCC(=O)NCC3CCCCC3)nnc2n1 | x | x | -4.7 | i | 1.02 | -1.0 | 135.4 |
| 3 | Cc1ccc2[nH]c(CCN(C)C)c(CC#N)c2c1 | 37.5 | 167.9 | 0.0 | i | 0.9 | -2.0 | 100.8 |
| 4 | COC(=O)C1=C(C)OC(N)=C(C#N)C1c1cc(C)sc1C (stereo not given) | -3.6 | 70.1 | 3.0 | i | 1.01 | -1.0 | 102.7 |
| 5 | OCC[C@H]1C[C@H](O)[C@@H](O)[C@@]2(CCCCO2)O1 | 0.0 | 116.8 | -8.9 | i | 0.85 | -1.0 | 98.5 |
| 6 | COc1ccccc1S(=O)(=O)Cc1ccc(C(=O)NC(C)c2ccc3c(c2)OCCO3)o1 (stereo not given) | x | x | -7.1 | i | 0.76 | -1.1 | 88.8 |
| 7 | C=CCNc1nc2ccccc2nc1NS(=O)(=O)c1cccs1 | x | x | -2.9 | i | 0.917 | -2.7 | 106.7 |
| 8 | CCOC(=O)N1CCN(c2cc(=O)n(-c3ccc(OC)cc3)c(=O)[nH]2)CC1 | 38.5 | 122.4 | -0.3 | i | 1.12 | -1.0 | 106.4 |
| 9 | CCOc1ccccc1Oc1coc2cc(OC)ccc2c1=O | 10.3 | 97.1 | -4.0 | i | 1.02 | -1.0 | 101.6 |
| 10 | CCOc1ccc(N2C(=O)CC(SC(=NC)Nc3ccc4c(c3)OCO4)C2=O)cc1 (stereo not given) | x | x | -3.1 | i | 0.963 | -0.6 | 57.1 |
| 11 | Cc1cccc(OCCC(=O)NCC(=O)Nc2cccc(C)c2C)c1 | -77.8 | 100.9 | 5.1 | i | 0.99 | -0.3 | 92.0 |
| 12 | Cc1nc2ccsc2c(=O)n1-c1ccc(Cl)cc1 | 26.7 | 110.9 | 7.1 | i | 1.1 | -1.2 | 96.5 |
| 13 | CCCC(=O)Nc1ccc(Cl)c(NC(=O)C(C)(C)C)c1 | i | 36.1 | -1.7 | i | 1.14 | -1.6 | 102.4 |
| 14 | Cc1ccc(N/N=C(\C#N)C(N)=S)cc1C | x | x | -4.9 | i | 0.91 | x | 101.5 |
| 15 | COc1ccccc1Nc1nc(N)nc(CSc2ncccn2)n1 | 9.1 | 70.8 | -2.4 | i | 0.91 | -3.5 | 108.8 |
| 16 | COc1ccc(NC(=O)COC(=O)c2ncc(Cl)c(Cl)c2Cl)c(OC)c1 | 0.0 | 98.1 | -8.0 | i | 1.05 | -0.3 | 106.5 |
| 17 | CNNC(=S)NCCC1=CCCCC1 | x | x | x | i | 0.88 | x | 101.8 |
| 18 | CCOC(=O)C1(CCOC)CCN(C2C3CC4CC(C3)CC2C4)CC1 (stereo not given) | x | x | -2.9 | i | 0.97 | x | 99.6 |
| 19 | CC(=O)Nc1ccc(SCC(=O)c2c(N)n(Cc3ccccc3)c(=O)n(C)c2=O)cc1 | x | x | x | u | x | x | 99.3 |
| 20 | CC1(C)N=c2ccc([N+](=O)[O-])c(N)c2=[N+]1[O-] | x | x | x | i | 0.9 | x | 101.7 |
| 21 | Cc1ccc(Sc2c(C)nn(C(=O)CNS(=O)(=O)c3ccc(F)cc3)c2C)cc1 | x | x | 1.0 | i | 0.82 | -1.3 | 108.6 |
| 22 | O=S(=O)(NCC(c1ccccc1)N1CCNCC1)c1ccc(Cl)cc1 (stereo not given) | x | x | 5.3 | i | 0.76 | -0.5 | 98.4 |
| 23 | CC(C)NC(=S)NNC(=O)C12CC3CC(CC(C3)C1)C2 | x | x | 0.8 | i | 0.94 | 12.0* | 101.2 |
| 24 | Cc1cc(C)n(-c2nc3ccccc3c(=O)n2OCc2ccc(F)cc2)n1 | 0.0 | 113.9 | -0.2 | i | 1.01 | -1.6 | 97.4 |
| 25 | O=C(c1cc2ncccn2n1)N1CCc2c([nH]c3ccccc23)C1c1ccccc1F (stereo not given) | 33.3 | 119.0 | 8.4 | i | 0.83 | x | 104.3 |

Exported with values under each structure: 3 of the compounds above.
Each structure is followed by: INS promoter inh, INS promoter inh cell count, PKD1 kinase inh, HSV augment, HSV augment primary fold, GALR2 ag, RGS16-Gao HTS
14) Cc1ccc(N/N=C(\C#N)C(N)=S)cc1C
 : x, x, -4.9, i, 0.91, x, 101.5
15) COc1ccccc1Nc1nc(N)nc(CSc2ncccn2)n1
 : 9.1, 70.8, -2.4, i, 0.91, -3.5, 108.8
16) COc1ccc(NC(=O)COC(=O)c2ncc(Cl)c(Cl)c2Cl)c(OC)c1
 : 0.0, 98.1, -8.0, i, 1.05, -0.3, 106.5

Among those listed so far, 2 have a furan ring, fused or not.
| cpd | Molecule | INS promoter inh | INS promoter inh cell count | PKD1 kinase inh | HSV augment | HSV augment primary fold | GALR2 ag | RGS16-Gao HTS |
| --- | --- | --- | --- | --- | --- | --- | --- | --- |
| 1 | Cc1ccc(NC(=O)c2oc3ccc(S(=O)(=O)N4CCC5(CC4)OCCO5)cc3c2C)cc1C | x | x | -11.4 | i | 0.86 | -1.5 | 105.3 |
| 6 | COc1ccccc1S(=O)(=O)Cc1ccc(C(=O)NC(C)c2ccc3c(c2)OCCO3)o1 (stereo not given) | x | x | -7.1 | i | 0.76 | -1.1 | 88.8 |

By substructure, those above containing a cyano group.
| cpd | Molecule | INS promoter inh | INS promoter inh cell count | PKD1 kinase inh | HSV augment | HSV augment primary fold | GALR2 ag | RGS16-Gao HTS |
| --- | --- | --- | --- | --- | --- | --- | --- | --- |
| 3 | Cc1ccc2[nH]c(CCN(C)C)c(CC#N)c2c1 | 37.5 | 167.9 | 0.0 | i | 0.9 | -2.0 | 100.8 |
| 4 | COC(=O)C1=C(C)OC(N)=C(C#N)C1c1cc(C)sc1C (stereo not given) | -3.6 | 70.1 | 3.0 | i | 1.01 | -1.0 | 102.7 |
| 14 | Cc1ccc(N/N=C(\C#N)C(N)=S)cc1C | x | x | -4.9 | i | 0.91 | x | 101.5 |

The list continues:
| cpd | Molecule | INS promoter inh | INS promoter inh cell count | PKD1 kinase inh | HSV augment | HSV augment primary fold | GALR2 ag | RGS16-Gao HTS |
| --- | --- | --- | --- | --- | --- | --- | --- | --- |
| 26 | CCOc1cc(C(=O)OCc2ccc(C(=O)OC)o2)cc(Br)c1OC | 28.6 | 68.2 | 0.5 | i | 0.95 | 1.0 | 108.6 |
| 27 | COc1ccccc1-c1nc(-c2ccccc2)[nH]c(=O)c1C#N | -30.8 | 120.9 | -6.8 | x | x | x | 91.7 |
| 28 | CCC/C(=N\NC(=O)CNC(=O)c1ccc(Cl)cc1)c1ccccc1 | -29.4 | 111.0 | -7.4 | i | 0.65 | x | 106.8 |
| 29 | OCCN1CCN(C(=S)c2ccc(Br)cc2)CC1 | 2.2 | 103.5 | 13.3 | x | x | 0.9 | 92.7 |
| 30 | C=CCn1c(-c2ccc3[nH]c(C)c(C)c3c2)n[nH]c1=S | -13.5 | 84.1 | 0.2 | i | 0.81 | 0.1 | 96.4 |
| 31 | COc1cccc(Nc2nc(-c3ccc4c(c3)OCCO4)cs2)c1 | -20.0 | 98.6 | -1.7 | i | 0.82 | -2.9 | 95.9 |
| 32 | Cc1ccnc(NC(=O)c2cc(-n3cnnc3)ccc2Cl)c1 | -8.1 | 147.5 | -2.7 | i | 0.86 | -2.9 | 79.6 |
| 33 | N/C(=N\OC(=O)c1ccc([N+](=O)[O-])cc1)c1cccnc1 | 21.9 | 126.2 | -0.6 | i | 1.09 | 0.1 | 105.0 |
| 34 | CCCCN(CC)S(=O)(=O)c1ccc(C(=O)Nc2nnc(COC)o2)cc1 | 3.2 | 104.8 | -5.8 | i | 0.91 | -1.2 | 109.0 |
| 35 | COc1ccccc1CC(=O)Nc1c[nH]c(=O)[nH]c1=O | x | x | 4.6 | i | 1.08 | 0.1 | 98.0 |
| 36 | COC(=O)c1ccccc1NC(=O)Cn1c(=O)n(Cc2ccccc2)c(=O)c2c(C)c(C)sc21 | -80.0 | 57.1 | -11.8 | i | 0.98 | -1.9 | 115.2 |
| 37 | Nc1ccc(Oc2ccc(F)cc2)nc1 | x | x | x | u | x | x | 97.7 |
| 38 | Cc1c(C(=O)N2c3ccccc3Sc3ccccc32)cccc1[N+](=O)[O-] | -34.7 | 146.7 | -2.0 | u | x | -0.3 | 96.0 |
| 39 | Cc1ccccc1S(=O)(=O)N(CC(O)CN1C(=O)NC(C)(C)C1=O)c1ccccc1 (stereo not given) | x | x | x | i | 0.93 | x | 90.5 |
| 40 | CCN1CCN(CC(=O)Nc2sc3c(c2C#N)CCC(C)C3)CC1 (stereo not given) | x | x | -2.6 | i | 0.82 | -0.5 | 134.0 |
| 41 | Fc1ccccc1N1CC(c2ccccc2)C(c2cccs2)=N1 (stereo not given) | -27.8 | 127.9 | -5.4 | i | 1.11 | 45.5* | -8.5 |
| 42 | N=C1/C(=C\c2ccc(-c3cccc(C(=O)O)c3)o2)C(=O)N=C2SC=C(c3ccccc3)N12 | x | x | x | i | 1.14 | x | 104.2 |

From no. 38 to 41, as listed above:
| cpd | Molecule | INS promoter inh | INS promoter inh cell count | PKD1 kinase inh | HSV augment | HSV augment primary fold | GALR2 ag | RGS16-Gao HTS |
| --- | --- | --- | --- | --- | --- | --- | --- | --- |
| 38 | Cc1c(C(=O)N2c3ccccc3Sc3ccccc32)cccc1[N+](=O)[O-] | -34.7 | 146.7 | -2.0 | u | x | -0.3 | 96.0 |
| 39 | Cc1ccccc1S(=O)(=O)N(CC(O)CN1C(=O)NC(C)(C)C1=O)c1ccccc1 (stereo not given) | x | x | x | i | 0.93 | x | 90.5 |
| 40 | CCN1CCN(CC(=O)Nc2sc3c(c2C#N)CCC(C)C3)CC1 (stereo not given) | x | x | -2.6 | i | 0.82 | -0.5 | 134.0 |
| 41 | Fc1ccccc1N1CC(c2ccccc2)C(c2cccs2)=N1 (stereo not given) | -27.8 | 127.9 | -5.4 | i | 1.11 | 45.5* | -8.5 |

Hits appear at their usual frequency. About 1.3% of those tested had a hit in this group.
